# Compound activity from PubChem.
# CSC inhib = blocks cancer stem cells | cancer stem cell-like cells viability, luminescence | inhibition, % at 7.5 µM | 1.1% of 300,000 active | AID 2717;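 active = mean at 75% or more and at least half the replicates too; tested in HMLE shEcad cells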;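 note: 0% = median of negative and 100% = median of positive control wells; the first replicate is given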
# eIF4H FP inh = inhibitors of RNA binding by human eIF4H; 0.94% of 290,000 active; eIF4H fluorescence polarization binding assay; inhibition, % at 35 µM; Q15056;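 active = 50% or more with normal probe brightness, or confirmed in later tests; about a fifth of its hits are not listed in these tables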;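 note: calls also rest on retests at 20 µM and on dose response follow-up; 0% = protein and probe with vehicle and 100% = probe without protein; strong numbers were not always called active; many hits fall short of the cut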
# Env fusion inh = inhibitors of HIV Env-mediated cell fusion; HeLa-JRFL Env/CEM21 cell fusion, luciferase; inhibition, % at 12.3 µM; 1.1% of 360,000 active; AID 651610;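 active = mean replicate inhibition score of at least 50 and every replicate individually at or above 50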;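 note: 0% = plate neutral controls and 100% = maraviroc near 300 nM; one replicate is shown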
# PABP FP inh = blocks human PABP binding to poly(A) RNA; AID 2014; inhibition, % at 35 µM; fluorescence polarization; 1% of 290,000 active;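 active = 50% or more with normal probe brightness, or confirmed in later tests; about a fifth of its hits are not listed in these tables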;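 note: calls also rest on retests at 20 µM and on dose response follow-up; controls were probe without protein and protein plus probe with vehicle; some compounds called inactive have numbers as strong as hits; many hits fall short of the cut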
# Target sequence (P11940 whole entry, looked up): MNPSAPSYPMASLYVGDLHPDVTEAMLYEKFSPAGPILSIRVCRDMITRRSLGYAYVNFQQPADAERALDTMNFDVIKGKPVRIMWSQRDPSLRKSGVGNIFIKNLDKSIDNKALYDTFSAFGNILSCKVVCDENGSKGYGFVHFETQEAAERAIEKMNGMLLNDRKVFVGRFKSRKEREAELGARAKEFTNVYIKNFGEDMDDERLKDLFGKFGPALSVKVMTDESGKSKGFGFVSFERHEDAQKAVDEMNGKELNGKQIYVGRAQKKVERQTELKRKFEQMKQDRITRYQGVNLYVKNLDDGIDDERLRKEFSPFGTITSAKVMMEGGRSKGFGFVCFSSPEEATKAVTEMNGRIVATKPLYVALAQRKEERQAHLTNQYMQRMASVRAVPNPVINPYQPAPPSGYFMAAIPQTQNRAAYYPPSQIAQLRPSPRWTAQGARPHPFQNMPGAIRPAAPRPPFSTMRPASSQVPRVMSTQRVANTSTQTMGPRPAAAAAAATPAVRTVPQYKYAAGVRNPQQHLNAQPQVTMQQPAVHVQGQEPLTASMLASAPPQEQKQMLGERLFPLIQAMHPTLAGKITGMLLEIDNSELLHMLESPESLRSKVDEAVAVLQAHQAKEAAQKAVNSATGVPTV
# UUG fidelity = yeast start codon fidelity modulation; S. cerevisiae UUG-firefly luciferase reporter, luminescence/redox ratio; activity score, % at 18.7 µM; 0.13% of 350,000 active;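 active = replicate mean at a twofold rise or more, about +100% in these data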;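 note: firefly luciferase made from a UUG start codon reports start codon fidelity; reporter light over untreated wells divided by growth signal over untreated wells; some hits fall short of that in this replicate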
# Rce1 inh = blocks yeast Ras-converting enzyme. yeast membranes, quenched prenylated peptide cleavage fluorescence. calls only. 0.27% of 290,000 active;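 active = fall in fluorescence gain of 50% or more versus controls, with final raw signal at or below 3038400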;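 note: plate controls were neutral control wells for no effect and wells lacking membranes for full effect; tested at 10 µM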
# MT1-MMP act inh = inhibitors of human MT1-MMP activation | HT1080 RFP-PRO-GFP cells, GFP/RFP ratio fluorescence, overnight; percent of plate control window, DMSO zero | P50281 | 0.061% of 360,000 active | GFP/RFP ratio change, % at 20 µM | AID 651647;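 active = GFP/RFP ratio change of at least 30% with cell ATP level not reduced by more than half and red fluorescence within 50% of control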; note: strong numbers were not always called active
#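 Test system: HT1080 RFP-PRO-GFP cells; Benchmarks: DMSO and RFP-L50D-GFP cell wells; Timing: cells overnight before dosing, compound overnight, 37 °C, 5% CO2; Compound: one 20 µM compound dose with 1% DMSO; Read-out: GFP/RFP fluorescence ratio.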
# eIF4H FP inh retest = also measured in eIF4H FP inh; calls as there; inhibition, %; compound at 20 µM; confirmation average;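 mean of two retest wells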
# PABP FP inh retest = recorded beside PABP FP inh, whose call it bears; inhibition, %; compound at 20 µM; confirmation repeats;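 mean of two retest wells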
# MT1-MMP act inh RFP = second read-out of MT1-MMP act inh, no call of its own (marks repeat the call); RFP signal change, %; measured here: RFP expression control read;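 0 = vehicle wells; hits needed this value within 50% of zero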
# Active calls of the source: *; i = inactive; . = not tested or not shown. Some of the compounds tested (hit frequency here may not be typical).
SMILES,CSC inhib,eIF4H FP inh,Env fusion inh,PABP FP inh,UUG fidelity,Rce1 inh,MT1-MMP act inh,MT1-MMP act inh RFP,others
CCN1CCN(CC(=O)Nc2cc3c(cc2C(C)=O)OCO3)CC1,8,2,-1,-4,-1,i,-8,-8,
CN1CCN(C(c2cccc(C(F)(F)F)c2)c2nnnn2Cc2ccccc2)CC1 (stereo not drawn),-1,-1,-37,-1,-9,.,-2,-9,
COc1ccc(CNC2CCCC2)c(OC)c1OC,1,-9,-25,1,-13,i,-3,0,
CCCCCCn1nc(C(=O)N(CCCC)c2c(N)n(CCC)c(=O)[nH]c2=O)c2ccccc2c1=O,8,.,6,.,-14,.,-3,0,
COc1ccc(CNC(=O)N2CCN(S(=O)(=O)c3ccccc3)CC2)cc1,2,-6,-5,13,-4,i,0,2,
O=C(c1ccc(Cl)cc1)C(Cn1cncn1)C(Sc1ccccc1)c1ccccc1 (stereo not drawn),25,1,.,4,-17,i,-19,-24,
CCN(CC)S(=O)(=O)c1cccc(-c2nnc(SCC(=O)NC3CCCCCCC3)n2N)c1,.,0,5,-6,16,i,7,-9,
CC1CN(C2CCN(C(=O)COc3ccccc3)CC2)CC(C)O1 (stereo not drawn),-1,-8,-67,3,-7,i,-14,-3,
CC1CC(=O)c2c(cc3c(-c4c(O)cc(O)c5c(O)c6c(cc45)OC(C)CC6=O)c(O)cc(O)c3c2O)O1 (stereo not drawn),-1,100*,.,92*,-8,i,-3,-41,
CC(C)(C)NC(=O)COC(=O)CCC(=O)c1cccs1,-17,-5,9,10,.,i,-8,1,
Cc1c(C(=O)NNC(=O)c2ccncc2)oc2ccc(Br)cc12,-9,.,-12,.,-14,i,2,-3,
CC(C)C(NC(=O)c1ccc2c(c1)OCO2)C(=O)N/N=C\c1ccco1 (stereo not drawn),-6,11,.,32,-21,i,-2,-1,
CCCCC(=O)Nc1ccc(NC(=S)NC(=O)CC)cc1OC,-5,4,32,10,.,i,5,2,
CC(=O)c1ccc(NC(=O)c2sc3nc4n(c(=O)c3c2C)CCCCC4)cc1,32,.,-9,.,12,i,4,-6,
COc1cccc(C2C(C#N)=C(N)OC(C(C)(C)C)=C2C#N)c1 (stereo not drawn),-5,-1,.,15,2,i,-1,1,
Cc1ccc(NC(=O)CN(c2ccc(Cl)cc2)S(=O)(=O)c2cc([N+](=O)[O-])ccc2Cl)cc1,38,6,-6,-2,.,i,0,-2,
Cc1ccc(-n2c(=O)cc(N3CC(C)OC(C)C3)[nH]c2=O)cc1 (stereo not drawn),-10,-2,3,7,20,i,-1,8,
CCOC(=O)c1c(NC(=O)Cc2ccccc2)sc2c1CC(C)(C)NC2(C)C,11,-5,-6,-7,7,i,-7,-2,
Cc1ccc(S(=O)(=O)c2c(N)n(C)c3nc4ccccc4nc23)cc1,-9,-6,.,18,0,i,8,-1,
O=C(Nc1cccc2nsnc12)c1cccnc1Cl,-5,-1,-13,4,.,i,2,7,
CCc1ccc(C(C)NC(=O)Cc2ccc(F)cc2)cc1 (stereo not drawn),2,-6,-5,-1,.,i,0,2,
Brc1ccccc1OCCCCN1CCCCC1,3,-1,2,8,-5,i,3,4,
Cc1cc(C(=O)NNC(=S)NCC2CCCO2)cs1 (stereo not drawn),-7,-2,-9,-3,-19,i,-3,2,
O=C(CN1CCc2ccccc2C1)Nc1ccc(OC(F)(F)F)cc1,4,-4,2,-11,-12,i,3,0,
CCCC(C)c1nnc(NC(=O)C2CCCO2)s1 (stereo not drawn),-11,5,.,9,-7,i,7,5,
# Carrying on:
SMILES,CSC inhib,eIF4H FP inh,Env fusion inh,PABP FP inh,UUG fidelity,Rce1 inh,MT1-MMP act inh,MT1-MMP act inh RFP,others
O=S(=O)(NCCc1ccccc1)c1cnc(Cl)c(Br)c1,.,91,-14,4,10,i,1,3,eIF4H FP inh retest=-2;PABP FP inh retest=11
O=S(=O)(c1ccc(SCCOc2ccc(Cl)cc2)nc1)N1CCCC1,16,.,.,.,13,.,-7,-21,
O=S(=O)(c1ccc(Cl)cc1)N1CCN(CCc2ccncc2)CC1,-4,4,9,-4,-19,i,1,0,
COc1ccc(/C=C/CN2CCN(CC(C)C)C(CCO)C2)cc1 (stereo not drawn),-1,1,8,8,.,i,-1,0,
O=C(O)CCCC(=O)N1N=C(c2ccccc2)CC1c1cccs1 (stereo not drawn),2,-5,-5,0,-12,i,-3,-4,
COc1ccc(Cl)cc1NC(=O)COC(=O)CCCC1=NS(=O)(=O)c2ccccc2N1,-16,.,1,.,9,i,0,0,
CC(CCc1ccccc1)NC(=O)Cn1cccc1C(=O)c1ccccc1 (stereo not drawn),-3,.,-2,.,0,i,0,-2,
c1ccc(NCc2ccccn2)cc1,-8,1,1,-1,.,i,-1,0,
COc1cc(OC)cc(C(=O)N[C@H](C(=O)Nc2cc(C)cc(C)c2)C(C)C)c1,1,-5,11,2,-4,i,-12,-9,
COc1ccc2c(c1)CC/C(=C\C=C\c1ccccc1OC)C2=O,6,-7,-129,-10,0,i,-2,3,
CCSc1nnc(-c2cc(Br)ccc2N)c(=O)[nH]1,8,-7,1,12,.,i,4,0,
C=CCn1c(C)cc(C(=O)COc2ccc(N(C)S(=O)(=O)c3ccc(NC(C)=O)cc3)cc2)c1C,48,.,.,.,-13,.,-8,-12,
C/C(=N\OCc1ccc(C#N)cc1)c1cc2ccccc2o1,5,-1,-10,-8,-41,.,5,-6,
COc1ccccc1C(=O)NC(=O)COc1ccc(Cl)cc1Cl,-9,.,.,.,22,i,8,3,
COc1ccccc1NC(=O)CCN1CCN(C)CC1,9,-5,-4,10,.,i,1,5,
CC1CCc2nc(NC(=O)C3CCCO3)sc2C1 (stereo not drawn),.,-5,-203,6,-27,i,0,0,
C/C(=N\NC(=O)c1ccco1)c1ccc(NC(=O)c2ccccc2)cc1,2,-9,-10,3,.,i,1,3,
O=C(O)C1C2CCC(C2)C1C(=O)Nc1ccc(Cl)c(Cl)c1 (stereo not drawn),26,.,3,.,.,i,1,0,
O=C(NCCc1csc(-c2ccccc2)n1)c1ccc(Br)o1,0,0,-125,-6,-2,i,-1,-3,
CCN(C(=O)c1cc2c(s1)-c1ccccc1OC2)c1cc(OC)ccc1OC,9,-5,-36,11,-18,i,-3,-5,
Cc1ccccc1-c1nc(CS(=O)(=O)CC(=O)NCCCN2CCN(C)CC2)c(C)o1,0,-6,-1,8,-7,i,-1,0,
COc1ccc(NS(=O)(=O)c2cc3c(cc2C)N(C(C)=O)CCO3)cc1OC,1,-12,-6,-6,-2,i,0,1,
C[C@H](NC(=O)c1[nH]cnc1C(=O)Nc1ccccc1)C(=O)OC(C)(C)C,.,-4,-19,10,-7,i,-1,-3,
COC(=O)Cc1ccc(NC(=S)NNC(=O)C2CC2)cc1,2,7,4,4,-16,i,4,1,
CCc1ccc(NC(=O)CC2C(=O)NCCN2C(=O)c2ccc(F)cc2)cc1 (stereo not drawn),-2,-3,-28,12,-6,i,0,0,

# Compounds listed so far containing a COOH group (two):
SMILES,CSC inhib,eIF4H FP inh,Env fusion inh,PABP FP inh,UUG fidelity,Rce1 inh,MT1-MMP act inh,MT1-MMP act inh RFP,others
O=C(O)CCCC(=O)N1N=C(c2ccccc2)CC1c1cccs1 (stereo not drawn),2,-5,-5,0,-12,i,-3,-4,
O=C(O)C1C2CCC(C2)C1C(=O)Nc1ccc(Cl)c(Cl)c1 (stereo not drawn),26,.,3,.,.,i,1,0,

# Nothing new here: entries from further up.
SMILES,CSC inhib,eIF4H FP inh,Env fusion inh,PABP FP inh,UUG fidelity,Rce1 inh,MT1-MMP act inh,MT1-MMP act inh RFP,others
COC(=O)Cc1ccc(NC(=S)NNC(=O)C2CC2)cc1,2,7,4,4,-16,i,4,1,
CCc1ccc(NC(=O)CC2C(=O)NCCN2C(=O)c2ccc(F)cc2)cc1 (stereo not drawn),-2,-3,-28,12,-6,i,0,0,

# Remaining list, next part
SMILES,CSC inhib,eIF4H FP inh,Env fusion inh,PABP FP inh,UUG fidelity,Rce1 inh,MT1-MMP act inh,MT1-MMP act inh RFP,others
O=C1CCN(Cc2ccc(O)cc2)CCN1[C@H](CO)c1ccccc1,8,-7,-14,8,-19,i,-2,0,
CCCn1c(C(C)NC(C)=O)nc2ccccc21 (stereo not drawn),-13,-2,-21,2,-22,i,-3,1,
CC(Oc1ccc(Br)cc1)C(=O)N1CCN(c2ccccn2)CC1 (stereo not drawn),-5,-1,-24,15,-6,i,2,2,
Cc1ccc(NC(=O)NC(=O)N(C(C)C)S(C)(=O)=O)nc1,-2,-6,-17,11,-10,.,0,3,
CCCCCn1c(CN2CCN(Cc3ccccc3)CC2)nc2c1c(=O)n(C)c(=O)n2C,16,3,-38,6,-27,i,5,-11,
COc1ccc(N2CCN(CCNC(=O)CCC(=O)NNc3nc4ccccc4c4nc(C)nn34)CC2)cc1,-10,-8,.,-8,-30,i,1,-2,
O=C(c1c[nH]c2ccc(S(=O)(=O)N3CCOCC3)cc2c1=O)N1CCN(c2ccccn2)CC1,.,-9,.,13,-14,i,0,4,
Cc1ccc(SCC(=O)O/N=C(\N)c2cccc([N+](=O)[O-])c2)cc1,-4,0,.,4,3,i,0,-2,
COCCNC(=O)C(c1ccc(F)cc1)N(CCOC)C(=O)CCC(=O)Nc1ccccn1 (stereo not drawn),-2,-9,-3,3,1,.,0,4,
C[C@]12c3[nH]c4ccccc4c3CCN1C(=O)C(CC(=O)NCCc1ccccn1)C[C@@H]2C(=O)N1CCCCC1 (stereo partly drawn),.,.,-5,.,-18,.,-3,4,
COc1ccc(-c2ccc3c(c2)S(=O)(=O)c2cccc(C(=O)O)c2C3=O)cc1OC,-2,.,14,.,-9,.,2,2,
CC(C)CC(=O)NCc1ccc(F)cc1,-6,0,-24,14,-14,i,-1,3,
Cc1ccc(CSC2=NCCN2C(=O)C(C)Oc2ccccc2)cc1 (stereo not drawn),-7,-5,-13,-4,.,i,-3,0,
COc1ccc(OC)c(-c2csc(N(CC3CCCO3)C(=O)Cc3ccccc3)n2)c1 (stereo not drawn),12,-3,17,4,.,i,-7,-9,
CCOC(=O)/C(C#N)=C/Nc1cc(C(=O)OCC)cc2c(OC)c(OC)ccc12,.,-3,-5,2,-5,.,6,0,
O=C(Nc1ccc(O)c2c(=O)cc(-c3ccccc3Cl)oc12)c1ccc(Cl)c(Cl)c1,-3,-12,16,-5,-12,i,2,-1,
CCOc1cc(C(=O)NCC(=O)N2CCC3(CC2)NCCc2[nH]cnc23)cc(OCC)c1OCC,-8,.,-1,.,-9,i,-1,-2,
CSc1ccccc1C(=O)N1CCOCC1,-7,-6,.,-7,-19,i,4,5,
CCOc1cc(CN2CCCC(CNC(=O)c3ccc(F)cc3)C2)ccc1OC (stereo not drawn),-5,0,2,4,.,i,-1,0,
CN(C)c1ccc(NC(=O)CN2CCC(N3CCCCC3)CC2)cc1,-5,0,3,25,.,i,-2,-2,
COc1ccc(S(=O)(=O)N2CCC(C(=O)N3CCOCC3)CC2)cc1,-2,-10,.,7,-15,i,1,-1,
Cc1sc2ncnc(N(C)C3CCCCC3)c2c1C,49,-7,-8,-8,-20,i,-4,-6,
Cc1cc(-c2[nH]nc3c2C(c2cccc(O)c2)C(C#N)=C(N)O3)c(C)s1 (stereo not drawn),.,8,-37,1,-18,i,-4,2,
CCN(CC)CCC(c1ccc(N(C)C)cc1)c1c(O)cc(OC)cc1OC (stereo not drawn),1,-9,-15,-7,-7,i,-5,-2,
CN(c1ccc(C(=O)Nc2cccnc2)cc1)S(=O)(=O)c1ccccc1,-7,-10,15,20,-10,.,-1,-4,
Cc1ccc(S(=O)(=O)c2cc(Nc3ccccc3)ccc2O)cc1,27,.,-9,.,-2,i,2,2,
